# Screening results: PubChem, several laboratories
# Rce1 inhib = blocks yeast Ras-converting enzyme | Q03530 | yeast membranes, quenched prenylated peptide cleavage fluorescence | calls only | 290,000 compounds, 0.27% hits;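 active means fall in fluorescence gain of 50% or more versus controls, with final raw signal at or below 3038400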;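 further: plate controls were neutral control wells for no effect and wells lacking membranes for full effect; tested at 10 µM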
# Target sequence (Q03530 whole entry, looked up): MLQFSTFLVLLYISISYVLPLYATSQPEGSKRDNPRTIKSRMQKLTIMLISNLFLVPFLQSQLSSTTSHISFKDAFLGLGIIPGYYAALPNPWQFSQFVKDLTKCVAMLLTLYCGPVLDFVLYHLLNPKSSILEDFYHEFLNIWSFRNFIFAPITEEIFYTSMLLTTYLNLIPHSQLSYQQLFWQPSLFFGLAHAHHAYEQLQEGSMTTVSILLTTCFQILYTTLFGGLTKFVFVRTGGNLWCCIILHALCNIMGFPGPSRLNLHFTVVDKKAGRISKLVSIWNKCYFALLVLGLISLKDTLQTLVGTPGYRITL
# MT1-MMP act inh = blocks activation of human MT1-MMP. P50281. HT1080 RFP-PRO-GFP cells, GFP/RFP ratio fluorescence, overnight; percent of plate control window, DMSO zero. GFP/RFP ratio change, % at 20 µM. 360,000 compounds, 0.061% hits. AID 651647;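 active means GFP/RFP ratio change of at least 30% with cell ATP level not reduced by more than half and red fluorescence within 50% of control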; further: strong numbers were not always called active
#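 Assay system: HT1080 RFP-PRO-GFP cells. Benchmarks: DMSO vehicle wells and RFP-L50D-GFP reporter cell wells. Times: overnight cell settling, then overnight compound exposure, 37 °C, 5% CO2. Compound: 20 µM single dose, 1% DMSO. Read-out basis: GFP/RFP fluorescence ratio.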
# eIF4H FP inh = inhibitors of RNA binding by human eIF4H; Q15056; eIF4H fluorescence polarization binding assay; inhibition, % at 35 µM; 290,000 compounds, 0.94% hits; AID 2012;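 active means 50% or more with normal probe brightness, or confirmed in later tests; about a fifth of its hits are not listed in these tables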;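 further: calls also rest on retests at 20 µM and on dose response follow-up; 0% = protein and probe with vehicle and 100% = probe without protein; strong numbers were not always called active; many hits fall short of the cut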
# Yeast UUG start = yeast start codon fidelity modulation. activity score, % at 18.7 µM. S. cerevisiae UUG-firefly luciferase reporter, luminescence/redox ratio. 350,000 compounds, 0.13% hits;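 active means replicate mean at a twofold rise or more, about +100% in these data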;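 further: firefly luciferase made from a UUG start codon reports start codon fidelity; reporter light over untreated wells divided by growth signal over untreated wells; some hits fall short of that in this replicate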
# PABP polyA inh = blocks human PABP binding to poly(A) RNA; P11940; fluorescence polarization; inhibition, % at 35 µM; 290,000 compounds, 1% hits;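 active means 50% or more with normal probe brightness, or confirmed in later tests; about a fifth of its hits are not listed in these tables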;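 further: calls also rest on retests at 20 µM and on dose response follow-up; controls were probe without protein and protein plus probe with vehicle; some compounds called inactive have numbers as strong as hits; many hits fall short of the cut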
# CSC inhib = cancer stem cell inhibition. cancer stem cell-like cells viability, luminescence. inhibition, % at 7.5 µM. 300,000 compounds, 1.1% hits;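 active means mean at 75% or more and at least half the replicates too; tested in HMLE shEcad cells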;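 further: 0% = median of negative and 100% = median of positive control wells; the first replicate is given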
# Env fusion inh = inhibitors of HIV Env-mediated cell fusion | HeLa-JRFL Env/CEM21 cell fusion, luciferase | inhibition, % at 12.3 µM | 360,000 compounds, 1.1% hits | AID 651610;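 active means mean replicate inhibition score of at least 50 and every replicate individually at or above 50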;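 further: 0% = plate neutral controls and 100% = maraviroc near 300 nM; one replicate is shown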
# MT1-MMP act inh RFP = also measured in MT1-MMP act inh; calls as there; RFP signal change, %; measured here: RFP expression control read;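 0 = vehicle wells; hits needed this value within 50% of zero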
# An asterisk follows results filed as active; i = inactive; / = no result given; & = joins results of further samples; [ ] = remark or other dose.
No.	smiles	Yeast UUG start	eIF4H FP inh	PABP polyA inh	Rce1 inhib	MT1-MMP act inh RFP	CSC inhib	MT1-MMP act inh	Env fusion inh
1	Nc1nccc(-c2cc(-c3ccc(Cl)cc3Cl)no2)n1	-21.1	-4.4	5.2	i	1.7	16.5	1.2	-70.5
2	Cn1nnnc1SCC(=O)NC(=O)c1cccc([N+](=O)[O-])c1	/	-5.2	2.7	i	-2.3	-11.4	-3.5	9.4
3	CCCCN(C(=O)C1COc2ccccc2O1)c1c(N)n(CCC)c(=O)[nH]c1=O (centres undefined)	-5.7	/	/	/	-2.8	-3.3	0.6	/
4	CSc1nc2ccc(NC(=O)c3cc4ccccc4o3)cc2s1	/	-14.3	-8.5	/	-1.1	11.0	1.4	-146.5
5	CCOC(=O)c1sc(N)c(C(=O)Nc2ccccc2OC)c1C	/	-6.3	-7.1	i	-9.9	59.3	-1.7	-94.0
6	O=C(CCN1CCN(c2ccccc2)CC1)N/N=C/c1ccccc1OC(F)F	/	26.4	-1.3	i	1.0	-8.0	1.8	16.0
7	CCCc1cc(=O)[nH]c(SCC(=O)N2C(C)CCCC2C)n1 (centres undefined)	-12.7	-3.8	7.7	i	4.8	8.0	1.4	1.4
8	CN1CCc2c(sc(NC(=O)C3COc4ccccc4O3)c2C(N)=O)C1 (centres undefined)	-8.1	-11.9	-0.5	i	-1.0	-6.0	4.0	-34.6
9	Cc1ccc(Cl)cc1NC(=O)C1CCCCC1C(=O)O (centres undefined)	/	-3.8	-5.5	i	9.3	-7.1	6.3	-16.6
10	CCN(CC(=O)Nc1ccccc1C(F)(F)F)C(=O)c1ccc(NC(=O)c2cccs2)cc1	11.7	/	/	/	1.7	/	1.0	13.0
11	Cc1cc(/C=N/n2cnnc2)c(C)n1-c1ccc(OCc2ccccc2F)cc1	1.9	-11.6	2.8	i	-20.4	40.2	-4.2	/
12	CCCCn1c(N)c(NCCC)c(=O)[nH]c1=O	3.5	22.2	-7.5	i	6.9	-4.2	-1.1	-2.2
13	COC(=O)C1=C(C)N(c2ccc(OC)cc2)C(C)=C(C(=O)OC)C1c1ccc(OC)cc1	-21.1	-1.9	0.5	i	2.4	13.7	1.6	-3.4
14	C#CCN1C(=O)S/C(=C\c2ccc(N3CCOCC3)cc2C)C1=O	/	22.6	6.9	i	0.7	/	-114.5	-132.2
15	COC(=O)c1cccc(NC(=O)C2CCCN2C(=O)c2cccs2)c1 (centres undefined)	-15.9	/	/	/	4.3	/	1.5	-1.6
16	CCOC(=O)CNC(=S)N(Cc1ccco1)Cc1ccccc1Cl	-19.9	-6.9	4.2	i	1.6	-12.2	-7.4	21.5
17	CC(=O)Oc1cc(C(=O)OCC(=O)N2CCc3ccccc3C2)cc(OC(C)=O)c1OC(C)=O	1.9	/	/	/	-8.6	22.8	1.0	-4.2
18	Cc1ccc(-c2c[n+](Cc3ccc(Cl)cc3)c3n2CCC3)cc1	/	2.2	-1.6	i	-25.5	20.5	-5.6	-6.1
19	CCCOc1nc2c(c(=O)n(C)c(=O)n2C)n1C	-10.8	-10.5	-2.9	i	1.8	-2.5	0.5	0.1
20	C/C(=N/NS(=O)(=O)c1ccc(C)c(C)c1)c1c[nH]c2ccccc12	-7.7	2.9	3.5	i	0.1	-0.7	2.7	-16.0
21	c1ccc2c(N3CCOCC3)nc(-c3ccncc3)nc2c1	-14.7	-2.4	5.0	i	-1.4	-3.8	-8.1	/
22	Cc1nnc(NC(=O)CSc2nnc(C)n2Cc2ccccc2)s1	-21.2	9.1	4.6	i	2.5	-2.3	1.7	-17.5
23	CCc1ccc(Nc2nnc(SCC(=O)Nc3sccc3C(N)=O)s2)cc1	-9.7	-9.9	-6.0	i	-11.4	10.2	-3.6	-9.7
24	O=C(NCc1ccccc1Cl)C1CCN(C(=O)c2ccc(F)cc2)CC1	3.7	/	/	/	0.3	/	-0.6	-10.1
25	O=C(/C=C/c1cccc(F)c1)OCC(=O)c1ccc[nH]1	-4.5	/	/	/	1.1	-8.4	-2.3	/
26	COc1ccc(-n2nc3c(c2NC(=O)CCCl)CSC3)cc1	-9.0	-5.5	-15.3	i	1.8	-0.8	0.7	3.3
27	C#Cc1ccc([C@H]2C=C(C(=O)N3CCN(Cc4ccc5c(c4)OCO5)CC3)O[C@@H](OCC)[C@@H]2CCCO)cc1	7.4&-0.6	2.5	-1.3	i	-2.1	8.7	-2.4	2.3[16.7 µM]
28	CSc1ccc(NC(=O)c2cccnc2)cc1C#N	-12.5	-3.5	-8.7	i	6.5	2.9	2.1	-11.1
29	CCCCc1ccc(S(=O)(=O)N/N=C(/C)c2ccncc2)cc1	-24.9	-8.7	2.1	i	-28.1	-6.7	-1.5	/
30	Cc1ccn(CC(=O)NC2CC(C)(C)Cc3c2cnn3-c2ccc(F)cc2)n1 (centres undefined)	-6.8	-5.6	6.2	i	-2.1	-16.3	1.5	-40.7
31	COC(=O)c1ccc(C(=O)OC)c(NC(=S)N2CCN(c3cc(Cl)ccc3C)CC2)c1	-8.4	2.5	22.1	i	-5.8	/	6.0	/
32	CC(=O)CCSc1nnc(-c2cccc(S(=O)(=O)N3CCOCC3)c2)o1	/	/	/	i	3.9	3.4	-1.9	-5.3
33	O=C(Nc1ccccc1N1CCOCC1)c1ccc2nc[nH]c2c1	6.0	-2.5	-14.2	i	0.2	/	-4.2	-0.2
34	COc1ccc(NC(=O)CN(c2cc(C)cc(C)c2)S(=O)(=O)c2c(C)n[nH]c2C)cc1	-12.3	-13.6	3.6	/	2.4	/	-4.5	4.7
35	COc1ccc(/C=N/Nc2cc(C)nc3c(C)cccc23)cc1	5.1	-8.3	-8.4	i	-5.4	26.9	7.0	-9.1
36	CCN(C(=O)Cn1c(=O)oc2ccccc21)c1ccc(C)c(C)c1	-13.7	-3.7	-10.3	i	0.9	-16.2	0.6	7.8
37	O=C(OCc1ccc(Cl)cc1Cl)c1ccncc1	-12.3	-8.0	12.3	i	-1.5	-4.0	-0.1	-7.7
38	O=[N+]([O-])c1ccccc1OCCOCCOc1cccc2cccnc12	/	-2.6	5.8	i	-2.6	0.2	-1.6	-1.1
39	COc1ccc(CS(=O)(=O)c2ncn[nH]2)cc1	-6.3	-1.9	-0.7	i	2.0	13.7	1.2	-3.2
40	C[C@H](CO)N1C[C@H](C)[C@@H](CN(C)Cc2ccc(C(=O)O)cc2)Oc2c(NS(=O)(=O)c3cccs3)cccc2C1=O	4.5&-13.7	/	/	/	4.4	/	1.9	-6.9
41	CC1CCN(N=Nc2nc3c([nH]2)c(=O)n(C)c(=O)n3C)CC1	-4.8	/	/	/	0.7	/	1.7	-21.9
42	CC1CN(C(=O)/C(=C/c2ccco2)NC(=O)c2ccccc2)CC(C)O1 (centres undefined)	-5.7	12.2	11.6	i	1.5	-8.2	-2.8	8.3
43	CCC(CO)Oc1cc(NC(=O)c2ccccc2[N+](=O)[O-])c2ncn(C(C)C)c2c1 (centres undefined)	-10.8	/	/	/	7.3	/	4.9	-18.9
44	O=C(Nc1ccc(F)cc1)C(=O)c1c(O)[nH]c2ccc([N+](=O)[O-])cc12	-2.2	17.5	-0.2	i	2.8	-1.3	4.2	/
45	Cc1ccc2c(c1)C(c1ccccc1)N(C(=O)c1ccc(S(=O)(=O)N3CCOCC3)cc1)CC(=O)N2 (centres undefined)	/	-6.6	-13.3	i	-0.2	-17.4	-5.8	17.6
46	CCOC(=O)C1(Cc2ccccc2)CCN(Cc2cccc(OC)c2O)CC1	-3.3	-12.9	-4.8	i	-3.4	10.1	-1.9	-0.9
47	CCn1c(CC(=O)Nc2ccc(F)cc2)nnc1SCC(=O)NC1CCCC1	-12.2	4.6	-1.4	i	3.5	-22.9	1.4	0.3
48	CCCCNC(=O)CC1N=C2c3ccccc3N=C(SCC(=O)Nc3cccc(C)c3)N2C1=O (centres undefined)	2.5	0.3	0.3	i	-6.1	-11.3	-3.8	-8.0
49	CCCCCOCC1CC(C/C(C)=N/NC(N)=S)C(=O)O1 (centres undefined)	/	-9.7	-10.5	i	-0.5	1.9	-0.5	/
50	O=C(CSc1nc2ccccc2c(=O)n1Cc1ccco1)Nc1cccc(O)c1	/	10.2	1.7	i	0.4	25.6	-2.7	-4.2

# Next section.
No.	smiles	Yeast UUG start	eIF4H FP inh	PABP polyA inh	Rce1 inhib	MT1-MMP act inh RFP	CSC inhib	MT1-MMP act inh	Env fusion inh
51	Cc1cccc(NC(=O)COC(=O)c2ccccn2)c1	-28.4	4.7	1.5	i	2.7	12.0	0.6	3.4
52	CC(C)[C@H](NC(=O)c1ccco1)C(=O)NCc1ccccc1	-15.2	3.7	-3.4	i	6.6	-0.8	2.5	-0.8
53	N#CC(C(=O)Nc1ccc(Cl)c(Cl)c1)=C1Nc2ccccc2N1	-9.9	4.6	-2.6	i	-5.2	18.9	3.8	-39.4
54	Cc1nn(C)cc1CNC(=O)c1cnn2c1NC(c1ccc(Br)cc1)CC2C(F)(F)F (centres undefined)	-27.7	2.9	-3.7	i	-2.6	-15.4	3.4	/
55	Cc1ccc2c(C)nc(Nc3nc(CSc4nnnn4-c4ccccc4)cc(=O)[nH]3)nc2c1	/	1.5	-4.8	i	-5.5	-6.7	6.3	69.7*
56	COc1ccc(/C=C(\NC(=O)c2ccccc2)C(=O)NCCC(=O)O)cc1	/	-10.5	-10.2	i	3.2	-1.1	-0.8	7.2
57	Cc1ccc(CN2CCN(CC(=O)NC(C)c3ccc4c(c3)OCCO4)C2=O)cc1 (centres undefined)	-13.8	-5.4	-9.9	i	-0.9	-9.5	-1.3	-10.7
58	CCOC(=O)N1CCC(NC(=O)c2cc(C(=O)Nc3cccc(C(F)(F)F)c3)ccc2CO)CC1	/	-5.2	2.8	i	-15.1	3.1	0.1	14.0
59	CCN(CC)S(=O)(=O)c1ccc2oc(C(=O)NCCCN3CCOCC3)c(C)c2c1	-18.5	0.2	2.0	i	-2.6	/	-4.2	-6.1
60	O=C(c1cccnc1)N1CCN(c2ccccc2Cl)CC1	/	4.7	4.3	i	/	-7.0	/	/
61	CCOC(=O)C1=CN(Cc2cccc(Br)c2)S(=O)(=O)NC1C (centres undefined)	-4.5	/	/	/	-1.7	/	1.4	10.4
62	CC(C)CNC(=O)C(=O)NCCC1CCCCN1S(=O)(=O)c1cccs1 (centres undefined)	-15.9	/	/	i	2.7	-8.6	0.9	/
63	Cc1onc(-c2ccccc2)c1C(=O)Nc1ccccc1C#N	-16.4&17.5	-5.8	-1.7	i	-1.0	-9.4	-4.3	-9.6&-12.1
64	CCOc1cc(C)c(Cl)cc1S(=O)(=O)N(C)C	4.7	3.5	-4.5	i	3.6	7.4	0.2	/
65	CC(C)(C)c1cc(C(=O)CCN2CCOCC2)cc(C(C)(C)C)c1O	-13.1	-8.8	3.3	i	-2.8	2.5	-4.6	17.5
66	CCOP(=O)(OCC)c1nc(-c2ccc(F)cc2)oc1NCc1ccccc1	/	-0.4	4.1	i	-4.8	-3.0	-2.0	-3.9
67	CCOC(=O)c1ccccc1NC(=O)Cc1c(C(=O)O)n(C)c2ccccc12	-11.9	-11.7	7.8	i	3.6	-4.3	0.6	21.5
68	COc1ccc(-c2[nH]ncc2CNCCn2cccn2)c(F)c1	/	5.9	2.3	i	7.8	5.3	0.2	-18.6
69	CCCOc1ccc(C(O)(CCC)CCN2CCCCC2)cc1 (centres undefined)	-9.2	-5.0	2.2	i	-3.4	-6.4	9.6	/
70	CC(/C=N/NC(=O)c1ccccn1)=C\c1ccco1	2.0	20.6	15.8	i	3.6	/	-0.4	-42.5

# Rewritten with two lines to a compound: entries from further up.
# Value order – Yeast UUG start | eIF4H FP inh | PABP polyA inh | Rce1 inhib | MT1-MMP act inh RFP | CSC inhib | MT1-MMP act inh | Env fusion inh
53) N#CC(C(=O)Nc1ccc(Cl)c(Cl)c1)=C1Nc2ccccc2N1
    -9.9 | 4.6 | -2.6 | i | -5.2 | 18.9 | 3.8 | -39.4
54) Cc1nn(C)cc1CNC(=O)c1cnn2c1NC(c1ccc(Br)cc1)CC2C(F)(F)F (centres undefined)
    -27.7 | 2.9 | -3.7 | i | -2.6 | -15.4 | 3.4 | /

# These rows are one share of the data. The share of hits here may be higher or lower than overall.
